Compound activity (PubChem BioAssay)
KCNQ2 pot – potentiators of rat KCNQ2 potassium channel. CHO-K1 KCNQ2, FluxOR thallium flux fluorescence; active compounds read high. B-score at 10 µM. 310,000 tested, 0.54% active;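 active = fluorescence ratio B-score at least 3 SD of library B-scores, with initial fluorescence B-score within 3 SD, cut at about 5.3 in these data; same plate scores as AID 2156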;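 also: B-score of peak minus minimum over baseline fluorescence ratio after K+ and Tl+ stimulus; positive B-score means potentiation of KCNQ2 with more thallium influx and brighter signal; only the inactives scoring about 0 or higher are listed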
Target sequence (O88943 whole entry, looked up): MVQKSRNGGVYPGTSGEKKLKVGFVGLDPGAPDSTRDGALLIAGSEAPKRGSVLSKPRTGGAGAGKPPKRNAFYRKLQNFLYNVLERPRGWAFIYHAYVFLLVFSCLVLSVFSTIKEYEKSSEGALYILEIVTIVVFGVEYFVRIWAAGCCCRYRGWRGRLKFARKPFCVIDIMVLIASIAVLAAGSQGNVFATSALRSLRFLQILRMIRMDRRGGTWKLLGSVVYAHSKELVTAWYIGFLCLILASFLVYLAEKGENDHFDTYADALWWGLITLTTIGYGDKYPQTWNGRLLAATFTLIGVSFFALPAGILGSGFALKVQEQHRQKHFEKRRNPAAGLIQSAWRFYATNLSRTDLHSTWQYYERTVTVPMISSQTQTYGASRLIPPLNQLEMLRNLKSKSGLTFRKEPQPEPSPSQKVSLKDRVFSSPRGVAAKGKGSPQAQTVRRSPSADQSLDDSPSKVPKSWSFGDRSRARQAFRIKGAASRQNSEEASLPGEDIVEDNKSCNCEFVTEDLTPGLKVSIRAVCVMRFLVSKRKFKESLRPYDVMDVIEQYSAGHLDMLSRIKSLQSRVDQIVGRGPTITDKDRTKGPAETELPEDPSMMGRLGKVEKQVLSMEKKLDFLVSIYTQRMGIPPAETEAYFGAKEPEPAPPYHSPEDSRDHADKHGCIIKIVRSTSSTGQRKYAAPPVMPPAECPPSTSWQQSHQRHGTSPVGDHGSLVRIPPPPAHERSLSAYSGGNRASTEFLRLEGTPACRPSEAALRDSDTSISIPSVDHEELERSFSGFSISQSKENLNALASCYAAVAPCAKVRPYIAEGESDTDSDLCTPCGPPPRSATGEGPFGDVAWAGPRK
KCNQ2 pot baseline – second read-out of KCNQ2 pot, no call of its own (marks repeat the call); B-score; compound at 10 µM; measured here: initial fluorescence intensity artifact check;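 brightness before thallium and not channel activity; 0 = typical well and far values either way flag optical interference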
* marks the source's active call; other numbers are inactive results. Not all compounds are listed; rates above refer to the full screens.

Each structure is followed by: KCNQ2 pot	KCNQ2 pot baseline
CC(C(=O)NC1CCCCC1)N(Cc1ccc(F)cc1)C(=O)c1snc(C(N)=O)c1N (configuration not stated)
 : 0.34	-1.3
OC[C@@H]1CCCN1Cc1cn(-c2ccccc2)nc1-c1ccc2c(c1)OCO2
 : 0.69	-0.59
COc1ccc(C(=O)Nc2ccc3c(c2)C(=O)c2ccccc2C3=O)cc1OC
 : 0.8	0.76
O=C(NCc1cccs1)c1cc(-c2ccccn2)nc2ccc(Br)cc12
 : 0.76	-1.5
COc1cccc(-c2csc(N3CCN(C(=O)Nc4ccc(F)cc4)CC3)n2)c1
 : 1.3	-0.55
CC(=O)NC(=S)Nc1ccc(S(=O)(=O)N(C)Cc2ccccc2)cc1
 : 0.32	0.06
COC(=O)c1c(NC(=O)Cn2cnc([N+](=O)[O-])n2)sc2c1CCC(C)C2 (configuration not stated)
 : 2.3	-0.66
Cc1ccc(C(=O)N/C(=C\c2ccco2)C(=O)N2CCSCC2)cc1C
 : 0.34	0.65
COc1ccc(NC(=O)Cn2ncn3c(cc4ccccc43)c2=O)c(OC)c1OC
 : 0.53	0.15
N/C(=N\OC(=O)c1ccc(Cl)cc1)c1ccc(Cl)cc1
 : 0.38	-0.04
Cc1cccnc1NC(=O)C1CCN(S(=O)(=O)c2cccs2)CC1
 : 0.04	-1.6
O=[N+]([O-])c1ccc(OCCOc2ccccc2/C=N/n2cnnc2)cc1
 : 0.41	-1.2
COc1ccc(S(=O)(=O)N2CCCC2C(=O)NCc2cccs2)cc1 (configuration not stated)
 : 1.3	0.13
Cc1ccc(S(=O)(=O)N2CCN(S(=O)(=O)N3CCOCC3)CC2)c(C)c1
 : 0.3	-0.61
CCCCOC(=O)CCc1n[nH]c(=O)[nH]c1=O
 : 1.1	0.38
Cn1c(-c2cc3c(C(F)(F)F)nn(C)c3s2)n[nH]c1=S
 : 0.4	-0.13
Fc1cccc(Cc2noc(CN3CCN(c4cnccn4)CC3)n2)c1
 : 1.5	0.95
CCO[C@@H]1OC(C(=O)N2CCOCC2)=C[C@H](c2coc3ccccc3c2=O)[C@H]1CCCO
 : 0.01	0.09
O=C(O)CCc1nnc(SCC(=O)Nc2cccc(C(F)(F)F)c2)[nH]c1=O
 : 0.3	-1.8
Cc1ccc2c(c1)c1c(n2C)C(=O)CCC1
 : 0.43	-2.5
O=C(NCCn1cccn1)c1ccc(OC2CCN(CCc3ccccc3)CC2)cc1
 : 1.9	-1.2
CS(=O)(=O)c1cnc(-c2ccccc2)nc1-c1ccc(Cl)c(Cl)c1
 : 0.84	1.5
COc1ccc(S(=O)(=O)Nc2cccc3ccc(O)cc23)cc1
 : 0.41	3.8
O=C(NC1CCCCC1)C(c1cccnc1)N(C(=O)CCl)c1ccc(F)cc1 (configuration not stated)
 : 0.87	-0.68
COCCNC(=S)NC12CC3CC(CC(C3)C1)C2
 : 2.6	0.01
Cc1ccc(S(=O)(=O)C2(C(=O)Nc3ccc4c(c3)OCO4)CC2)cc1
 : 1	1.6
CCc1ccc(CN2C(=O)c3ccccc3C2C(=O)NC(C)CC)cc1 (configuration not stated)
 : 0.89	-0.41
O=C(Nc1cccc(O)c1)c1cc2nc(-c3ccccc3)cc(-c3ccccc3)n2n1
 : 1.4	-1.1
C=CCn1c(SCC(=O)Nc2c(C)nn(Cc3ccccc3)c2C)nnc1C(O)c1ccccc1 (configuration not stated)
 : 0.96	-1.5
O=C(Nc1ccccc1-c1nc2ccccc2s1)c1ccco1
 : 1.5	-1.1
CN(C)CCCNC(=S)N(Cc1cccs1)Cc1cc2cc3c(cc2[nH]c1=O)OCCO3
 : 0.47	0.67
CC(C)N(Cc1nc(COc2ccccc2)no1)Cc1nccn1C
 : 0.97	-0.57
O=C(Nc1nncs1)c1cc(S(=O)(=O)N2CCCCC2)ccc1Cl
 : 1.5	2
CCOc1ccc(C(=O)N2CCCC2)cc1OC
 : 0.5	-0.51
CC/C=C/C(=O)N1CC2(CC(c3cccc(NC(=O)CC)c3)=NO2)C[C@H]1C(N)=O (some centres not stated)
 : 1.6	0.34
Cc1cc(C)cc(-n2ccnc2SCC(=O)Nc2nccs2)c1
 : 0.04	2
CC1CCc2nc(NC(=O)c3ccco3)sc2C1 (configuration not stated)
 : 1.2	-0.68
CC(NC(=O)C12CC3(C)CC(C)(CC(C)(C3)C1)C2)C(=O)O (configuration not stated)
 : 0.02	1.9
O=C(c1ccc2oc(CCCc3ccccc3)nc2c1)N1CCCC(CCCO)C1 (configuration not stated)
 : 1.5	0.17
COc1ccc(OC)c(S(=O)(=O)Nc2cc3c4c(c2)CC(=O)N4CCC3)c1
 : 1.4	2.4
COc1ccc(CNC(=O)CCCNS(=O)(=O)c2cccc3nonc23)cc1
 : 0.87	-1.9
CCOc1cc(C2CC(=O)N3CN(C4CCCCC4)CSC3=C2C#N)ccc1O (configuration not stated)
 : 2.5	0.95
CN(C)CCCOc1nn(Cc2ccccc2)c2ccccc12
 : 1.9	1.8
COc1ccc(C)cc1NC(=O)C1CCN(S(=O)(=O)c2c(C)noc2C)CC1
 : 0.13	0
O=c1cc(N2CCc3ccccc3C2)[nH]c(=O)n1-c1ccc(Cl)cc1
 : 0.15	-2.1
Cc1ccc(OCC(=O)N(Cc2ccc(C)o2)C2CCS(=O)(=O)C2)cc1 (configuration not stated)
 : 1.3	1.1
NC(=NCCc1c[nH]c2ccccc12)NS(=O)(=O)c1cc(F)ccc1F
 : 0.49	-0.11
CCOC(=O)C1=C2SCC(=O)N2C(N)=C(C#N)C1
 : 1.8	-0.03
Cc1nn(C)cc1CNC(=O)Nc1ccc(Cl)cc1
 : 0.52	1
COc1ccccc1Cn1c(CCCO)nc2ccccc21
 : 0.36	-0.57
O=C(Nc1cc([N+](=O)[O-])ccc1N1CCCC1)c1ccccc1
 : 0.27	-1.2
Cn1cccc1/C=N/NC(=O)Cc1ccccc1
 : 0.2	-0.68
Fc1ccc(CNC(=S)Nc2cccc(Cl)c2)cc1
 : 2	0.42
COc1cc(C(=O)NCc2ccc(C)cc2)ccc1OC(F)F
 : 0.53	0.13
CNc1cc(-n2nc(C)cc2-c2ccccc2)ncn1
 : 0.74	1.1
COc1ccc(OC)c(Cc2nnc(CCC(=O)NC3CCCC3)o2)c1
 : 0.34	-0.99
CCCCC(=O)C1=C(N2CCCC2)CC(C)(C)CC1=O
 : 1.4	0.45
Cc1ccccc1NC(=O)CSC(N)=O
 : 4.6	4.3
O=C(NC12CC3CC(CC(C3)C1)C2)N1CCN(C2CCCCC2)CC1
 : 1.6	0.02
O=C(NC1CCCCC1)c1ccc(CS(=O)(=O)c2ccc(Cl)cc2)o1
 : 0.98	0.6

Next records:
Each structure is followed by: KCNQ2 pot	KCNQ2 pot baseline
COCCN1C(=O)N[C@@H](c2ccco2)C(C(=O)OC)=C1C
 : 0.24	-0.01
CCCNC(=O)C1(S(=O)(=O)c2ccccc2)CC=CC1
 : 1.8	0.18
C=C(c1ccc(O)cc1)c1ccc(O)cc1
 : 3.6	-0.06
COCCOC1CCN(C(=O)c2cc(COc3ccc(-n4cncn4)cc3)on2)CC1
 : 0.77	1.2
COc1cc2c(cc1OC)CN(S(=O)(=O)/C=C/c1ccccc1)CC2
 : 0.44	1.3
O=C(CN1C(=O)NC2(CCCCCC2)C1=O)Nc1ccc(S(=O)(=O)N2CCOCC2)cc1
 : 0.74	-2.8
CN(C)/C=N/c1cc(=O)n(C)c(=O)n1Cc1ccccc1
 : 0.57	2.2
COc1ccccc1CN(C)S(=O)(=O)c1cccs1
 : 0.07	-0.48
COc1ccc(C(CC(=O)O)NS(=O)(=O)c2ccc(C)cc2)cc1 (configuration not stated)
 : 0.05	-1.6
O=C(Nc1ccccn1)C1CCN(S(=O)(=O)c2ccc3c(c2)OCCCO3)CC1
 : 1.1	-2.1
O=C(Cc1ccccc1)NCC(=O)OCC(=O)c1ccc([N+](=O)[O-])cc1
 : 0.37	1
Cc1ccc(S(=O)(=O)c2ccc(Cl)cc2)cc1S(=O)(=O)N(C)CC(=O)O
 : 1.1	-0.25
C=C1N(c2ccccc2)C(=O)OC1(C)C
 : 0.2	-0.44
NC(=O)c1ncc(C(F)(F)F)cc1Oc1cccc(F)c1
 : 0.5	-0.01
COc1ccc(NC(=O)CCC(=O)Nc2nnc(C3CCCCC3)s2)c(OC)c1
 : 1.2	1.2
Nc1c2c(nc3ccccc13)N(C1CCCCC1)CC2
 : 0.77	-1.2
COc1ccccc1CN(C(=O)c1cnccn1)C(C(=O)NC1CCCCC1)c1cc(OC)c(OC)c(OC)c1 (configuration not stated)
 : 0.21	0.2
Cc1cccc(NC(=O)C(C)N2C(=O)C3C4CC(C(Br)C4Br)C3C2=O)c1 (configuration not stated)
 : 0.6	-1.6
CSc1nc(NNC=O)cc(Oc2ccc(NC(C)=O)cc2)n1
 : 0.43	0.07
CS(=O)(=O)NCCSCc1ccc(Cl)cc1
 : 2	-0.09
CCCC1=NN2C(=N)/C(=C\c3cc(C)n(-c4cc(C)cc(C)c4)c3C)C(=O)N=C2S1
 : 0.68	-0.69
CCN(C(=O)c1cc2c(=O)[nH]c3ccc(C)cc3c2s1)c1ccccc1C
 : 0.05	1.9
CCOc1ccc(C)cc1S(=O)(=O)Nc1cccnc1
 : 0.15	-0.32
CCCCn1c(N)c(N(CCOC)C(=O)CN(C)S(=O)(=O)c2ccc(Cl)cc2)c(=O)[nH]c1=O
 : 0.51	0
Cc1ccc(NC(=O)CN2C(=O)NC(C)(c3ccccc3)C2=O)c(C)c1 (configuration not stated)
 : 0.98	1.6
CN1CC(=O)N/C1=N\C(=O)Nc1ccc2c(c1)N(C)C(=O)CS2
 : 1	1.4
CCC(C)(C)NC(=O)c1ccc(Sc2nncn2C)c([N+](=O)[O-])c1
 : 0.89	0.33
CSc1nc(=S)cc(C)[nH]1
 : 1.2	-1.4
COC(=O)CC(NS(=O)(=O)c1cccs1)c1ccccc1Cl (configuration not stated)
 : 0.93	1.7
COC1(OC)N=C(NC(=O)Nc2ccccc2)C2(C#N)C(c3ccccc3)C12C#N (configuration not stated)
 : 0.35	0.75
COc1ccc(/C=N/NC(=O)c2cccc3ccccc23)c(OC)c1OC
 : 2.2	-0.62
COc1cccc(N2CCN(C(=O)CCCCCNc3nc(=S)[nH]c4ccccc34)CC2)c1
 : 0.41	0.53
CCN(CC)S(=O)(=O)c1cc(C(=O)Nc2ccccc2C(=O)O)ccc1OC
 : 1.3	0.14
COc1ccc(C2(c3ccc(OC)cc3)NC(=O)N(CC(=O)N(C)c3ccccc3)C2=O)cc1
 : 0.18	-1.9
OC(CNc1ncnc2sccc12)c1ccccc1 (configuration not stated)
 : 1.4	0.58
COC(=O)CNC(=O)COC(=O)c1cc(Cl)cc(Cl)c1N
 : 0.57	0.35
CC1CCN(C(=O)CNC(=O)Cn2ccc3ccccc3c2=O)CC1
 : 0.27	0.67
COc1ccc(N2CCN(C(=O)CCC(=O)N3CC(C)Oc4ccc(C)cc43)CC2)cc1 (configuration not stated)
 : 0.87	0.32
CCC(C)NC(=O)Cn1c(=O)n(CCCC(=O)NCc2ccccc2Cl)c(=O)c2ccccc21 (configuration not stated)
 : 0.28	0.03
Cc1nc(NC(=O)CC(C)C)sc1-c1csc(Nc2ccc(Cl)cc2Cl)n1
 : 1.3	0
O=C(O)c1ccc(-c2noc(-c3ccccc3C(F)(F)F)n2)cc1
 : 1.5	-2.7
O=C(O)/C=C/c1cn(-c2ccccc2)nc1-c1cc2ccccc2o1
 : 2	-0.31
O=C(CSc1ccccc1)Nc1ccc2sccc2c1
 : 0.74	0.71
C=CCn1c(SCC(=O)Nc2ccccc2-c2ccccc2)nc2cc(C(=O)O)ccc2c1=O
 : 2.4	0
O=c1c(-c2ccccc2Cl)coc2c(CN3CCCCC3)c(O)ccc12
 : 0.62	0.95
COc1ccc(-c2nnc(SCC(=O)NC3CCCC3)n2C)cc1
 : 0.38	-0.08
COc1ccccc1C(=O)Nc1ccc(Nc2ccccc2)cc1
 : 0.24	0.68
COc1ccc(CCNC(=O)c2ccc(CS(=O)Cc3ccc(C)cc3)o2)cc1OC (configuration not stated)
 : 0.83	1.1
Cc1ccccc1NC(=O)CSc1nnc(Cc2cccn2C)n1-c1ccc(F)cc1
 : 0.26	0.81
COc1cc(/C=N/Nc2nc(C)cc(=O)[nH]2)cc(OC)c1O
 : 0.76	-0.73
COc1cc(NC(=O)C2CC2)c(OC)cc1NC(=O)c1ccco1
 : 1.1	0.04
CC1CCN(C(=O)COC(=O)c2cc3ccccc3cc2O)CC1
 : 1	-0.18
O=C(O)c1cccc(CN2C(=O)S/C(=C/c3cccc([N+](=O)[O-])c3)C2=O)c1
 : 0.05	-0.67
CC(=O)Nc1ccc(C(=O)CSc2nnc(C)o2)cc1
 : 1.1	-0.79
COc1ccc(-n2cnnc2SCC(=O)Nc2cc(S(=O)(=O)N3CCCCC3)ccc2C)cc1
 : 1.8	0.28
Cc1cc(NS(=O)(=O)c2ccccc2)c([N+](=O)[O-])cc1C
 : 1	-0.81
CCOC(=O)N1CCN(C(=O)c2ccccc2NC(=O)c2ccc(OC)cc2)CC1
 : 0.44	-1.6
CCN1CCN(c2ccc(NC(=O)c3cccnc3)cc2Cl)CC1
 : 2.4	-1.4
CC(C)(C)CC(=O)Nc1ccc(Nc2ccccc2)cc1
 : 6.3*	-0.55*
